# PV pol inh: inhibitors of poliovirus RNA polymerase binding and polymerization; P03300; poliovirus polymerase elongation, fluorescence polarization; hits give low values; % elongation, % (compound at 16.7 µg/mL); 150,000 tested, 0.66% active; in the data active = % elongation below about 90%; also: some results filed as inactive read as strong as hits
# Target sequence (P03300 1749-2209 limits assumed): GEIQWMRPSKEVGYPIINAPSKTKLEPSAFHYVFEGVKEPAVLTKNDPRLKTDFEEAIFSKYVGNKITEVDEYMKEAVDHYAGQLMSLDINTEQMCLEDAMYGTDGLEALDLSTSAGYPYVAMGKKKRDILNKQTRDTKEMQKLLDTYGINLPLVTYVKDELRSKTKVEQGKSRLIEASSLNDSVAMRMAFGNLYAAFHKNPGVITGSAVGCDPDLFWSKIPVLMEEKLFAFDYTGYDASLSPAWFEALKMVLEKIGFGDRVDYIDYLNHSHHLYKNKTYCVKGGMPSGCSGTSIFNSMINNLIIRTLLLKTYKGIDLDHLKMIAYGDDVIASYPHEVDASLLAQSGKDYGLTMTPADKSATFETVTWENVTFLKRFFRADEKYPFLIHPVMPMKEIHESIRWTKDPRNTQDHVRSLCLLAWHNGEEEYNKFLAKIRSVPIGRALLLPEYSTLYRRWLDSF
# PV pol inh intensity: second read-out of PV pol inh, no call of its own (marks repeat the call); % elongation; measured here: total intensity read-out; formula for this scale not given here;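 total fluorescence in place of polarization; lower means less elongation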
# * hit, by the source's call. Some of the compounds tested; rates above refer to the full screens.
SMILES,PV pol inh,PV pol inh intensity
Cc1cc(NC(=O)CCNS(=O)(=O)c2cccc3nsnc23)ccc1Br,103.0,105.0
Cc1cccc(-c2nc(C(N)=O)c3c(n2)n(-c2ccc4c(c2)OCO4)c(=O)n3C)c1,106.0,109.0
COc1ccc(OCC(=O)Nc2ccccc2C(=O)OCc2cc(=O)n3nc(C)sc3n2)cc1,108.0,109.0
COc1ccccc1CNC(=O)COCc1cc(-c2ccc3c(c2)OCO3)on1,110.0,115.0
NC(=O)C1CCN(C(=O)c2ccccc2NC(=O)c2nsc3ccccc23)CC1,107.0,101.0
Cc1cccc(CCNC(=O)CCc2c(C)nc3ncnn3c2C)c1,109.0,109.0
COc1ccc(S(=O)(=O)NCc2nc(-c3ccccc3)no2)cc1,106.0,111.0
O=C(Nc1nc2n(n1)C(c1ccc(F)cc1)C=C(c1ccccc1)N2)c1ccc(Cl)cc1 (centres undefined),120.0,145.0
Fc1ccc(C(c2nnc(-c3ccccc3)o2)N2CCN(c3ccccc3)CC2)c(Cl)c1 (centres undefined),109.0,109.0
Cc1ccc(NC(=O)C2CCCN(S(=O)(=O)c3ccc4c(c3)CCCC(=O)N4)C2)cc1Cl (centres undefined),114.0,115.0
O=c1c2ccccc2nc(-c2ccc(Cl)cc2)n1CCCOc1ccccc1F,104.0,103.0
COc1cc(-c2noc(CCC(=O)Nc3cc(C)ccc3C)n2)cc(OC)c1OC,105.0,101.0
O=C(CSc1nc2c(oc3ccccc32)c(=O)n1-c1ccccc1F)Nc1ccccc1,109.0,104.0
CC(=O)N1c2ccc(S(=O)(=O)NCC3CCC(C(=O)Nc4ccc(C)c(C)c4)CC3)cc2CC1C (centres undefined),114.0,108.0
COc1cc(Cl)c(C)cc1NC(=O)C1CCN(c2nc3ccccc3n3cccc23)CC1,110.0,106.0
O=C(NC1CC(=O)N(c2cccc(F)c2)C1)C1CCCC1 (centres undefined),106.0,111.0
CCN(CC)c1cc(C)c2cc(NC(=O)c3cccc(OC)c3OC)ccc2n1,106.0,107.0
COc1ccc(S(=O)(=O)n2ccnc2)cc1C(C)(C)C,103.0,105.0
O=C(O)c1ccc2nc(-c3cc4cccc(O)c4oc3=O)[nH]c2c1,79.0*,86.0*
Cc1ccc(CSc2ccc(-c3cccs3)nn2)cc1,107.0,105.0
O=C(c1ccco1)N1CCN(c2nc3c(Cl)cccc3s2)CC1,101.0,98.0
CCN(C(=O)c1ccc2c(=O)n3c(nc2c1)CCCCC3)c1cc(C)ccc1C,102.0,106.0
Cc1nc(S(=O)(=O)N2CCN(c3ccccc3F)CC2)cn1C,112.0,105.0
COc1ccc(N2CCN(C(=O)c3cc(S(=O)(=O)N4CCC(C)CC4)cn3C)CC2)cc1,107.0,112.0
CCN(CC)CCNC(=O)c1c(C)oc2ncnc(N3CCOCC3)c12,110.0,105.0
# Additional results follow:
SMILES,PV pol inh,PV pol inh intensity
CC(=O)N1CCc2c(sc3c2c(=O)n(-c2ccccc2C)c(=O)n3Cc2cccc(F)c2)C1,104.0,107.0
Cc1ccc(-n2c(=O)c3cccnc3n2CC(=O)Nc2cccc(C)c2C)cc1,106.0,104.0
O=C(CCNS(=O)(=O)c1cccc2nsnc12)Nc1ccc(F)cc1,107.0,110.0
COc1ccc2c(Sc3ccc(Cl)cc3)c(C(=O)N3CCC(C)CC3)[nH]c2c1,100.0,105.0
O=C(CC1(O)C(=O)N(Cc2ccccc2)c2ccc(Br)cc21)c1ccccc1 (centres undefined),110.0,107.0
COc1ccc2c(c1)c(=O)c(S(=O)(=O)c1ccc(Cl)cc1)cn2C,104.0,105.0
Cc1ccc(CN(Cc2ccco2)c2cnc(S(C)(=O)=O)nc2C(=O)Nc2ccc(Br)cc2)o1,107.0,86.0
CCn1c(C)c(C)c2cc(C(=O)N3CCN(c4ccccc4)CC3)ccc21,115.0,112.0
CCCCOc1cccc(C(=O)N(Cc2ccc(C)o2)c2ccccn2)c1,108.0,107.0
CCC1CN(C(=O)NCc2ccc(C)cc2)c2cc(Cl)ccc2O1 (centres undefined),106.0,99.0
Cc1cc(=O)n(CC(=O)NCCC(C)C)c2c1c(C)nn2C,105.0,111.0
Cc1cc(OCC(=O)NCC2(N3CCOCC3)CCCCC2)ccc1Cl,111.0,113.0
CCn1cc(C(=O)N2CCN(c3cccc(C(F)(F)F)c3)CC2)c2cc(OC)c(OC)cc2c1=O,104.0,98.0
CCOC(=O)c1c(Nc2cc(C)cc(C)c2)nnc(-c2ccccc2)c1-c1ccccc1,107.0,109.0
COc1ccc(NC(=O)C2CCN(S(=O)(=O)c3ccc4[nH]c5c(c4c3)CCCCC5)CC2)cc1,101.0,98.0
O=C(COc1ccccc1)Nc1ccc(S(=O)(=O)N(Cc2ccccc2)c2ccccc2)cc1,110.0,107.0
COc1ccc(CNC(=O)Cn2c(SCC(=O)Nc3ccc(OC)cc3)nc3ccccc32)cc1,102.0,103.0
CCCn1c2ccc(C)cc2c2nnc(SCCN3CCCCC3)nc21,102.0,95.0
COc1nnc(-c2ccc(N3CCCCC3)c(NC(=O)c3ccc(C)cc3)c2)c2ccccc12,103.0,105.0
CCN1CCc2c(sc(NC(=O)c3ccc(S(=O)(=O)N(CCOC)CCOC)cc3)c2C(N)=O)C1,101.0,80.0
Cn1cc(S(=O)(=O)c2ccc(Cl)cc2)c(=O)c2cc(F)c(N3CCCC3)cc21,105.0,107.0
COc1ccc(N(CC(=O)N2CCN(c3ccccc3F)CC2)S(=O)(=O)c2c(C)n[nH]c2C)cc1,104.0,109.0
CC1=C(C(=O)Nc2ccccc2)C(c2ccccn2)n2nc(SCc3ccccc3Cl)nc2N1 (centres undefined),99.0,99.0
Cc1ccc(-c2nn3c(C)nnc3c3ccccc23)cc1S(=O)(=O)NCC(C)O (centres undefined),101.0,104.0
CCCOC(=O)c1ccc(Nc2c(C(=O)OCC)cnc3c(C)cc(Cl)cc23)cc1,108.0,99.0

# Entries from the list above that contain fluorine (11):
SMILES,PV pol inh,PV pol inh intensity
O=C(Nc1nc2n(n1)C(c1ccc(F)cc1)C=C(c1ccccc1)N2)c1ccc(Cl)cc1 (centres undefined),120.0,145.0
Fc1ccc(C(c2nnc(-c3ccccc3)o2)N2CCN(c3ccccc3)CC2)c(Cl)c1 (centres undefined),109.0,109.0
O=c1c2ccccc2nc(-c2ccc(Cl)cc2)n1CCCOc1ccccc1F,104.0,103.0
O=C(CSc1nc2c(oc3ccccc32)c(=O)n1-c1ccccc1F)Nc1ccccc1,109.0,104.0
O=C(NC1CC(=O)N(c2cccc(F)c2)C1)C1CCCC1 (centres undefined),106.0,111.0
Cc1nc(S(=O)(=O)N2CCN(c3ccccc3F)CC2)cn1C,112.0,105.0
CC(=O)N1CCc2c(sc3c2c(=O)n(-c2ccccc2C)c(=O)n3Cc2cccc(F)c2)C1,104.0,107.0
O=C(CCNS(=O)(=O)c1cccc2nsnc12)Nc1ccc(F)cc1,107.0,110.0
CCn1cc(C(=O)N2CCN(c3cccc(C(F)(F)F)c3)CC2)c2cc(OC)c(OC)cc2c1=O,104.0,98.0
Cn1cc(S(=O)(=O)c2ccc(Cl)cc2)c(=O)c2cc(F)c(N3CCCC3)cc21,105.0,107.0
COc1ccc(N(CC(=O)N2CCN(c3ccccc3F)CC2)S(=O)(=O)c2c(C)n[nH]c2C)cc1,104.0,109.0

# More structures:
SMILES,PV pol inh,PV pol inh intensity
COc1cc(NC(=O)c2cc(S(=O)(=O)N3CCC(C)CC3)cn2C)cc(OC)c1OC,110.0,110.0
COCCCN1C(=O)c2ccccc2CC1(C)C(=O)NC1CCCCC1 (centres undefined),117.0,114.0
COC(=O)c1ccc(OCC2c3cc(OC)c(OC)cc3CCN2C(=O)COc2ccc(Cl)cc2)cc1 (centres undefined),110.0,113.0
Cc1cc(C)cc(C(=O)Nc2c3c(nn2-c2ccccc2C)CS(=O)(=O)C3)c1,109.0,99.0
CCOc1ccccc1CNC(=O)c1cnc2sc(N3CCC(C)CC3)nn2c1=O,102.0,102.0
Cc1ccc(C)c(NC(=O)C(NS(=O)(=O)c2ccc3c(c2)CCC(=O)N3)c2ccccc2)c1 (centres undefined),113.0,109.0
COc1ccc(-c2nc(SCC(=O)NCCc3ccccc3)n[nH]2)cc1,115.0,118.0
Cc1ccc(OCCn2c(C3CC(=O)N(Cc4ccc(F)cc4)C3)nc3ccccc32)c(C)c1 (centres undefined),103.0,99.0
Cc1ccc(NC(=O)CN2CCN(c3ccccc3F)CC2)cc1F,107.0,112.0
Cc1ccc(-n2c(=O)c3c4c(sc3n(CC(=O)Nc3ccccc3C)c2=O)CCCCC4)cc1C,107.0,108.0
COc1ccc(OC)c(NC(=O)CSc2ccc(-c3sc(C)nc3C)nn2)c1,111.0,109.0
COc1ccccc1NC(=O)CN1C(=O)C(c2ccc(F)cc2)=NC1(C)C,111.0,111.0
Cc1cc(C)c(NC(=O)Cn2nc3c(cc2=O)CCCC3)c(C)c1,112.0,112.0
Cc1nn(-c2ccccc2)c2c1cc1c(=O)[nH]c(=O)nc-1n2-c1cccc(C(F)(F)F)c1,109.0,103.0
CCc1ccccc1OCC(=O)Nc1ccc(S(=O)(=O)Nc2nc(C)cc(C)n2)cc1,103.0,105.0
Cc1ccc(C(=O)c2oc3ccccc3c2NC(=O)COc2ccccc2C)cc1,107.0,109.0
Cc1ccc(-c2nc3ccccn3c2Nc2c(C)cccc2C)o1,101.0,104.0
CCN(CC)S(=O)(=O)c1ccc2oc(C(=O)NCc3ccccc3OC)c(C)c2c1,107.0,109.0
CC(C)CSc1ccccc1NC(=O)c1sc2nc(-c3ccncc3)ccc2c1N,113.0,139.0
CC1CCN(CC2CCN(C(=O)Nc3ccc(Br)cc3F)CC2)CC1,101.0,105.0
CCN(CC)C(=O)CSc1nc2ccsc2c(=O)n1Cc1ccccc1Cl,97.0,96.0
CCn1c(CC2C(=O)N(C)c3ccc(Br)cc32)nc2ccccc2c1=O (centres undefined),110.0,115.0
COc1cc(C2c3c(oc4ccc(C)cc4c3=O)C(=O)N2Cc2ccccc2)ccc1O (centres undefined),98.0,101.0
O=c1c2cccnc2n(Cc2cccc(F)c2)c(=O)n1Cc1ccccc1Cl,105.0,109.0
Cc1ccc(NC(=O)Cc2c(C(=O)O)c(C)cn2C)cc1Cl,110.0,118.0

# Quoted at random: 2 compounds from above
SMILES,PV pol inh,PV pol inh intensity
NC(=O)C1CCN(C(=O)c2ccccc2NC(=O)c2nsc3ccccc23)CC1,107.0,101.0
Cc1cccc(CCNC(=O)CCc2c(C)nc3ncnn3c2C)c1,109.0,109.0

# Next section
SMILES,PV pol inh,PV pol inh intensity
O=c1c2cnn(-c3ccc(Cl)cc3)c2ncn1Cc1ccc(Cl)cc1Cl,108.0,107.0
CCN1CCN(c2cc(C)c3cc(NC(=O)/C=C/c4cccc(Cl)c4)ccc3n2)CC1,105.0,107.0
CCS(=O)(=O)N1CCc2cc(C(=O)Nc3ccc(Br)cc3F)ccc21,104.0,103.0
Fc1ccccc1N1CCN(c2ncnc3c2nc2n3CCCCC2)CC1,107.0,104.0
O=C(CSc1c2c(nc3cc(Cl)ccc13)CCCC2)N1CCN(c2ccccc2)CC1,105.0,104.0
CCOc1ccc(C(=O)N2CC(=O)Nc3ccc(F)cc3C2c2ccc(F)cc2)cc1 (centres undefined),107.0,102.0
CCOC(=O)c1ccc(NC(=O)C2CC(=O)NC(=Nc3ccc(C)c(C)c3)S2)cc1 (centres undefined),106.0,108.0
CN1CCN(C(=O)c2ccc3c(c2)N(Cc2ccc(Cl)cc2)C(=O)c2ccccc2S3(=O)=O)CC1,107.0,107.0
CCc1ccc(-c2cn3c(n2)sc2cc(C(=O)NCCC4=CCCCC4)ccc23)cc1,109.0,113.0
Cc1ccc(OCC(=O)Nc2ccc3c(c2)sc(=O)n3C)cc1,114.0,112.0
CCc1cccc(NC(=O)C2CCC(CNS(=O)(=O)c3ccc(Br)s3)CC2)c1 (centres undefined),110.0,102.0
CC(C)Cc1nn2c(=O)cc(COC(=O)c3cccc(NS(C)(=O)=O)c3)nc2s1,110.0,107.0
Cc1cc(C)cc(N2CC(c3nc(-c4cccc(Cl)c4)no3)CC2=O)c1 (centres undefined),103.0,107.0
O=C(CCS(=O)(=O)c1cc2c(cc1Cl)NC(=O)CO2)NCCc1ccccc1,105.0,103.0
CN(c1ccccc1)c1ncnc2c1cnn2C,108.0,108.0
O=C(c1ccc2c(c1)N(Cc1ccccc1F)C(=O)c1ccccc1S2(=O)=O)N1CCCC1,107.0,109.0
COc1cccc(NC(=O)Nc2cccc(-c3cn4cccnc4n3)c2)c1,111.0,112.0
CCN(CCCNC(=O)Cn1ncc2c([nH]c3ccc(C)cc32)c1=O)c1ccccc1,101.0,95.0
Cc1nc2sccn2c(=O)c1S(=O)(=O)N1CCN(c2ccc(F)cc2)CC1,113.0,115.0
Cc1ccc(Nc2nc(C(N)=O)c(NC(=O)c3ccccc3Br)s2)cc1,102.0,108.0
O=C(Nc1nc2n(n1)C(c1ccc(F)cc1)C=C(c1ccccc1)N2)c1cccc([N+](=O)[O-])c1 (centres undefined),108.0,98.0
O=C(CSc1nc2c([nH]c3ccccc32)c(=O)n1-c1ccccc1)N1CCCc2ccccc21,99.0,97.0
Cc1ccc(C)c(OCCn2cc(C(=O)c3ccco3)c3ccccc32)c1,101.0,99.0
Cc1ccc(OCC(=O)NCC2(N3CCN(C)CC3)CCCCC2)cc1,112.0,113.0
Cc1c(Cl)cccc1NC(=O)c1ccc2snnc2c1,110.0,111.0
COc1ccc(S(=O)(=O)NCCc2csc(-c3ccc(F)cc3)n2)cc1F,110.0,116.0
CCn1c(=O)cc(OCC(=O)Nc2cc(Cl)c(OC)cc2OC)c2ccccc21,105.0,111.0
O=C(NC1CC(=O)N(c2cccc(F)c2)C1)C1CCCCC1 (centres undefined),109.0,111.0
Cc1ccc(CN2CCc3nc(Nc4ccc5c(c4)OCCO5)ncc3C2)cc1,106.0,108.0

# One compound at a time (already shown):
# Listed for O=C(NC1CC(=O)N(c2cccc(F)c2)C1)C1CCCCC1 (centres undefined) : PV pol inh: 109.0; PV pol inh intensity: 111.0
# Listed for CCc1cccc(NC(=O)C2CCC(CNS(=O)(=O)c3ccc(Br)s3)CC2)c1 (centres undefined) : PV pol inh: 110.0; PV pol inh intensity: 102.0

# Assay outcomes (PubChem)
